# Menin-MLL FL inh: inhibitors of human menin-MLL interaction, wild-type MLL peptide; Fluorescence polarization, fluorescein-MLL peptide displacement from menin; FP activity change, % at 61.4 µM; 290,000 tested, under 10 active; AID 1766; inconclusive = falling polarisation curve, or a change in total fluorescence; inactive = total fluorescence flat and polarisation flat or rising; no compound was filed as active; the % refers to the polarisation; negative = inhibition;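 further: % of control where 0% means no effect; inhibitors lower the polarisation; unlabelled MLL peptide was the positive control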
# Sfp inh: Sfp phosphopantetheinyl transferase inhibition. Biochemical Sfp PPTase activity, qHTS. Potency, µM, for the others: max response, negative = inhibition, usual class: inhibitors. 3.5% of 310,000 active; active means well fitted inhibition curve with a large enough effect; inconclusive means small, poorly fitted or top-dose-only effect, or another doubt; inactive means no such curve, though single readings can be large or run the other way;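 further: the enzyme is Sfp with the accession as filed and its product quenches rhodamine fluorescence; potency means the concentration at half of the fitted maximal effect; 0% = enzyme reaction without inhibitor and -100% = no enzyme wells; top concentration of the series not given in the record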
#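 Fluorescence-quenching assay with 15 nM Sfp, 5 uM rhodamine-CoA and 12.5 uM BHQ-2-labelled ybbR peptide in pH 7.6 Hepes/MgCl2 buffer. Enzyme was pre-incubated with compound for 15 min at room temperature. Rate was taken from the 30-min fluorescence change (525/598 nm).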
# ClpP mod: qHTS Assay for Activators of ClpP | Potency, µM (doses to about 57.5 µM), inactives show at the top dose activity change, negative = active | ATP-dependent Clp protease proteolytic subunit (Bacillus subtilis (strain 168)), P80244 | purified B. subtilis ClpP, FRET peptide cleavage, 20 min | 1.9% of 340,000 active; active = well fitted falling curve with a large enough effect; inconclusive = small, poorly fitted or top-dose-only effect; inactive = no such curve, though single readings can be large or run the other way; further: potency means the concentration at half of the fitted maximal effect; the source files actives as falling curves though it sought activators and does not explain the sign; nearly all actives have a fitted effect of over 65% in size; many hits overshoot -100%
# Target sequence (P80244 whole entry, looked up): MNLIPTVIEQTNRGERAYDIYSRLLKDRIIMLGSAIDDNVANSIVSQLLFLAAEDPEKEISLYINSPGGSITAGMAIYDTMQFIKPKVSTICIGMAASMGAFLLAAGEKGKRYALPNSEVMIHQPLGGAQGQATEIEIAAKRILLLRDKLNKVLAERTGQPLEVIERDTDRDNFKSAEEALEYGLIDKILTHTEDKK
#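 FRET quenching reversal measured ClpP activation: 10 microg/mL B. subtilis ClpP at pH 8 with the FRET-FV decapeptide, read at 430 nm after 320 nm excitation. The 20-min minus 0-min signal was scaled between DMSO/no-enzyme wells and ADEP (5.8 microM final).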
# gsp ag: activates gsp, the McCune-Albright syndrome mutation. gsp mutant cells, cAMP HTRF, 30 min; control for the full effect not named in the record. Potency, µM (top dose mostly 76.9 µM), without a hit: at the top dose activation (cAMP increase), usual class: activators. 0.13% of 340,000 active. AID 624287; active = well fitted activation curve with a large enough effect; inconclusive = small, poorly fitted or top-dose-only effect, or another doubt; inactive = no such curve, though single readings can be large or run the other way; cell line not stated here;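 further: phosphodiesterase inhibitor Ro 20-1724 added with compounds to block cAMP breakdown; potency means the concentration at half of the fitted maximal effect; nearly all actives have a fitted effect of over 60% in size; about a fifth of the inactives were tested at one dose only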
#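 Cells in DMEM/10% FBS with G418 were pretreated with compounds in DMSO plus […] (300 uM stock) for 30 min at 37C. cAMP was measured by HTRF (cAMP-d2 plus anti-cAMP antibody-K) after 30 min at room temperature.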
# gsp antag: gsp mutant antagonism; gsp-mutant cells, cAMP HTRF, 30 min; control for the full effect not named in the record; Potency, µM (top dose mostly 76.9 µM), without a hit: at the top dose activity change, negative = inhibition, usual class: inhibitors; 0.4% of 340,000 active; AID 624288; active = falling curve of any shape with a large fitted effect; inconclusive = falling curve, mostly with a smaller effect; inactive = flat or rising curve; cell line not stated here;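 further: intracellular cAMP measured with PDE inhibitor Ro 20-1724 present during compound exposure; potency means the concentration at half of the fitted maximal effect; on the % scale 0 is the no-effect control and ±100 the full control effect; nearly all actives have a fitted effect of over 65% in size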
#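 HTRF cAMP read-out (cAMP-d2 plus anti-cAMP antibody-K in lysis buffer, 30 min RT). Before lysis, cells are exposed to compounds with […] for 30 min at 37C in DPBS containing Ca/Mg, BSA and Tween 20.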
# D2 potentiator: positive allosteric modulators of human D2 dopamine receptor | P14416 | DiscoveRx D2 beta-arrestin cells, luminescence, 90 min; 100% = 57 uM dopamine signal | potentiation, % (no concentration beside the values) | 0.23% of 360,000 active; active = potentiation of 50% or more; inconclusive = 30% to 50%; inactive = 30% or less;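 further: compound concentration not given in the record; tested on top of an EC20 dose of dopamine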
#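 PathHunter beta-arrestin assay in DiscoveRx D2 cells. Compounds were added with an EC20 of dopamine (50 nM final) for 90 min at 37 deg C. Luminescence was read 1 h after detection reagent, with 57 uM dopamine as the EC100 control.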
# TRPV1 potentiator: potentiators of human vanilloid receptor 1 (TRPV1) | potentiation, % at 8.33 µM | 0.02% of 320,000 active | TRPV1-expressing cells, Fluo-8 calcium influx, capsaicin EC20 potentiation; host cell line not named in the record; control for the full effect not named in the record; active means potentiation above 80%; inconclusive means 30% to 80%; inactive means below 30%; further: 0% is about no effect
# Target sequence (Q8NER1 whole entry, looked up): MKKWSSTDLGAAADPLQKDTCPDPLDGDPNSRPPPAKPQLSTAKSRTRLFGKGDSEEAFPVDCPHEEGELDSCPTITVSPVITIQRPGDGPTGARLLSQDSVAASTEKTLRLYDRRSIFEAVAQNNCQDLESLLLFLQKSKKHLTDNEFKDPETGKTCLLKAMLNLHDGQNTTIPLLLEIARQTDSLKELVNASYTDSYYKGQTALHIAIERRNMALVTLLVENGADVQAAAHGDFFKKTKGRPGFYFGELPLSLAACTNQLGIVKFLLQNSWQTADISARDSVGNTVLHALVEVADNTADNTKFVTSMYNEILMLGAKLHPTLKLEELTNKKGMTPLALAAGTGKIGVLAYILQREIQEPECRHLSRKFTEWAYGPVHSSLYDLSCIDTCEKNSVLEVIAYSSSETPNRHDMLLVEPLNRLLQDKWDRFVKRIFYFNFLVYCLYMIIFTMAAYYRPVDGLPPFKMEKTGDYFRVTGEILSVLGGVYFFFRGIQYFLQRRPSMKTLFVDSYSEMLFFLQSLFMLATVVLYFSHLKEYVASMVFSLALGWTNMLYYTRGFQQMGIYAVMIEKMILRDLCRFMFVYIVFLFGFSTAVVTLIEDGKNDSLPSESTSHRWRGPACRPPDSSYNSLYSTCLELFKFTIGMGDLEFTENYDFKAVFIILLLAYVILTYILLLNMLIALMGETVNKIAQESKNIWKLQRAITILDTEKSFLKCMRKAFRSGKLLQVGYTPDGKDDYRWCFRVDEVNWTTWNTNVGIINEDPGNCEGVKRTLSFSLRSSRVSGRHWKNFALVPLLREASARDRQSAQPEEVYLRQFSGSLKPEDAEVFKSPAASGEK
#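 Cells expressing TRPV1 were dye-loaded with Fluo-8 and read kinetically: 10 s baseline, 3 min after compound (agonist portion), then 2 min after EC20 capsaicin (allosteric enhancer portion). Calcium-bound dye fluorescence at 480/520 nm.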
# * marks the source's active call; other numbers are inactive results; ? = inconclusive; nt = no result given; & = joins results of further samples; [ ] = remark or other dose.
SMILES,Menin-MLL FL inh,Sfp inh,ClpP mod,gsp ag,gsp antag,D2 potentiator,TRPV1 potentiator
CCOc1cccc(-c2nc3cc(C)ccc3o2)c1,6.4,-4%,?,-10%,2%,-6,-13
Cc1c(NC(=O)C(C)Sc2nnc(-c3ccccc3)o2)c(=O)n(-c2ccccc2)n1C (stereo not given),1.7,-1%,-1.3%,0%,6%,-17,28
Cc1cc(SCC(=O)OCC(=O)N2CCN(C(=O)c3ccco3)CC2)c(C)cc1Br,0.8,?,0.6%,-67%[inhibitor],-16%,-7,22
Cc1ccc2c(c1)c1c3n2CCCN(Cc2ccccc2)C3CCC1 (stereo not given),8.5,-4%,?,17%,2%,-3,-6
C#CCOCCOCCOCCNc1nc(N2CCN(C(=O)[C@H](CCC(=O)O)n3cc(C(N)CC(C)C)nn3)CC2)nc(N2CCN(C(=O)[C@H](Cc3ccc(O)cc3)n3cc(C(N)CC(C)C)nn3)CC2)n1 (stereo not given in full),-4.5,-13%,2.2%,?,4%,-14,15
O=C(O)c1ccc(NS(=O)(=O)c2cccc(C(=O)Nc3ccc(Br)cc3)c2)cc1,-0.7,18%,0.9%,-15%,1%,2,17
COc1ccc(NC(=O)c2nc(SC)ncc2Cl)cc1,1.2,16%,0.5%,?,-7%,-5,16
Cc1ccc(CSCc2nc3ccccc3[nH]2)cc1,-1.8,17%,nt,3%,1%,-3,-1
Cc1ccsc1C(=O)N1CCC(N2CCC(C(=O)NCC3CCCO3)CC2)CC1 (stereo not given),-11,12%,-0.7%,-20%,13%,-4,-1
O=C1CC(=O)OC(c2ccc([N+](=O)[O-])cc2)O1,nt,nt,-1.9%,?,nt,-30,nt
CN(C)C(CNC(=O)/C=C/c1cccc(Cl)c1)c1ccccc1 (stereo not given),0.0,-7%,-11%,-6%[15.4 µM],-8%,-44,-11
Cc1noc(C)c1C(=O)N1CCCc2ccccc21,4.3,9%,1.9%,10%,5%,-7,2
Cc1cnc(N=Nc2ccccc2)[nH]1,nt,nt,nt,?,-6%,-8,nt
O=C(NCCN1CCOCC1)C(=O)NCC1CCCO1 (stereo not given),nt,2%,0.4%,11%,1%,-2,15
Nc1nc(SCC(=O)Nc2ccccc2C(F)(F)F)[nH]c(=O)c1-c1ccccc1,-4.7,14%,nt,-1%[15.4 µM],-2%,-8,11
Cc1ccc(NC(=O)CCNS(=O)(=O)c2ccc3[nH]c(=O)oc3c2)cc1,nt,4%,1.0%,?,14%,-11,-19
COc1cccc(-n2c(-c3cccc(S(=O)(=O)N(C)C)c3)n[nH]c2=S)c1,1.2,50µM*,1.4%,10%[15.4 µM],-6%,-11,7
COc1ccc(CCNC(=O)[C@@H](NC(=O)c2ccccc2F)C(C)C)cc1OC,-0.6,15%,?,-8%[15.4 µM],3%,4,7
CC1(C)CCCC2=C1CC1C(=O)N(c3ccccc3)C(=O)C1C2 (stereo not given),-1.4,8%,-2.8%,0%,-7%,0,-17
Cc1ccccc1COC[C@H](CC(C)C)N1CCN(C(=O)c2cccc(C(F)(F)F)c2)CCC1=O,2.1,1%,3.3%,1%,-9%,-3,-14
CN(CC(=O)C(C(N)=O)c1ccccc1)c1ccccc1 (stereo not given),nt,nt,1.9%,-105%[inhibitor],nt,-11,nt
C=CCN1C(=O)C2(OCCO2)c2cc(C)ccc21,1.7,7%,0.6%,?,16%,-10,-4
Cc1nc(N/N=C/c2ccc(O)cc2O)cc(N2CCOCC2)n1,-2.5,13%,nt,-15%,10%,-3,3
COC(=O)[C@@]1(C)[C@H]2C(=O)N(C)C(=O)[C@H]2[C@H]2CN=C(SCc3ccc(Cl)cc3)N21,nt,nt,-2.3%,nt,10%,-3,nt
CS(=O)(=O)Nc1cccc(C2=NN(C(=O)c3ccc(F)cc3)C(c3cccs3)C2)c1 (stereo not given),3.5,0%,-13%,15%,?,3,6
COc1ccc(N2CCN(CCNC(=O)C3CCN(S(=O)(=O)c4cccs4)CC3)CC2)cc1,1.9,22%,-4.6%,3%,3%,-6,5
COc1c(Cl)cc(C(=O)NN)cc1Cl,-0.4,50µM*,nt,19%[15.4 µM],10%,-3,-4
Cc1cccc(N2CCN(C(=O)NCc3ccc(Cl)cc3)CC2)c1,0.0,6%,-0.7%,20%,10%,-6,-6
COc1cc(C(=O)NCCc2ccc(F)cc2)ccc1OCC(=O)N1CCOCC1,nt,nt,nt,9%[15.4 µM],-2%,-2,18
COc1ccc(C2=Nn3c(nnc3-c3ccco3)SC2)cc1OC,3.6,?,-2.0%,-4%,6%,-15,27
N#Cc1cccc2cccc(S(=O)(=O)N3CCOCC3)c12,nt,nt,2.1%,-43%[inhibitor],2%,-1,-10
COc1ccc(C(O)c2nccn2C)cc1 (stereo not given),0.6,-1%,-1.5%,-15%,-1%,-1,4
O=C(NC(=S)N1CCN(c2c(Cl)cccc2[N+](=O)[O-])CC1)c1cccs1,1.5,-5%,-2.4%,?,-8%,-4,9
c1ccc(CNc2ccc(CNc3ncn[nH]3)cc2)cc1,7.3,14%,-2.4%,25%,0%,-10,22
C[C@H]1CN([C@@H](C)CO)C(=O)c2cc(Br)cnc2O[C@@H]1CN(C)C(=O)c1ccncc1,nt,nt,-2.9%,?,nt,2,nt
CCOC(=O)c1cc2cc(-c3c(C(=O)OCC)oc4cc(O)cc(O)c4c3=O)ccc2o1,-0.9,17%,1.5%,-1%,?,-20,0
O=C(CNc1cc(S(=O)(=O)N2CCOCC2)ccc1N1CCCC1)NCc1ccco1,-1.9,-8%,nt,?,7%,-2,-2
O=C(CNC(=O)c1ccco1)OCc1c(F)cccc1Cl,-1.1,18%,-2.3%,3%,4%,-1,9
COCCCNC(=S)N1CCC(NC(=O)c2ccco2)CC1,-4.6,7%,nt,12%[15.4 µM],-38%,-4,-1
Cc1ccc(S(=O)(=O)NCC(=O)OCC(=O)NCCc2ccccc2)cc1,nt,nt,0.9%,-3%,-12%,-19,-5
CC1CN(C(=S)NC(=O)c2cccc([N+](=O)[O-])c2)CC(C)O1 (stereo not given),-2.2,12%,-5.0%,13%,-3%,-9,12
CCc1ccc(OCC(=O)Nc2ccc(S(=O)(=O)Nc3cc(C)on3)cc2)c(Br)c1,nt,10%,-4.5%,-5%,-17%,-4,4
c1ccc(-c2nnc(-c3ccncc3)o2)cc1,1.2,7%,-5.9%,7%,1%,-8,7
CNC(=O)c1c(NC(=O)c2ccco2)sc2c1CCCC2,nt,-8%,-7.2%,?,?,5,5
CC(C)(C)NC(=O)c1ccc2c(c1)N(CC(=O)N1CCN(c3ccc(F)cc3)CC1)C(=O)C(C)(C)O2,1.3,0%,0.9%,?,10%,-2,8
CCCCc1nc2ccccc2c(C(=O)O)c1C,0.1,14%,-1.4%,-14%,8%,3,nt
Cn1cc(CN2CCC(n3nccc3NC(=O)CCOc3ccccc3)CC2)cn1,-0.6,9%,-2.5%,4%,9%,-17,6
CCc1cccc2c3c([nH]c12)C(CC)(CC(=O)O)OCC3 (stereo not given),-7.7&4.7&-2.4,22%&17%,2.6%,nt,-5%,-7,-5
COc1ccc(C(=O)NN2C(=O)C3C(c4ccccc4)C=CC(c4ccccc4)C3C2=O)cc1 (stereo not given),11,33%[activator],0.4%,-2%,-24%,-9,-7
COc1ccc(NC(=O)c2nc3ccccc3s2)cc1,-0.5,?,nt,4%,-12%,-8,5

# Continuation.
SMILES,Menin-MLL FL inh,Sfp inh,ClpP mod,gsp ag,gsp antag,D2 potentiator,TRPV1 potentiator
O=C(Nc1ccc(OCC(=O)N2CCOCC2)cc1)Nc1cccc(Cl)c1,-1.8,11%,11µM*,7%[15.4 µM],-18%,-3,0
Cc1cc(C)c2nc(C)cc(Nc3ccc(C(=O)N4CCOCC4)cc3)c2c1,2.8,9%,nt,?,4%,3,3
CC1CN(C(=S)Nc2cccc([N+](=O)[O-])c2)CC(C)O1 (stereo not given),nt,1%,-0.6%,-11%,5%,-4,2
CCC(C)NC(=O)c1cnn2c(C)c3c(nc12)CCCC3 (stereo not given),0.2,2%,10µM*,32%,11%,4,-17
CC1(c2ccccc2)NC(=O)N(CC(=O)Nc2nnc(C3CC3)s2)C1=O (stereo not given),-2.1,2%,-2.9%,0%,12%,17,4
CCOC(=O)c1cc(-c2cc3ccccc3o2)n[nH]1,1.9,1%,-8.7%,?,-16%,8,-20
O=C(/C=C/c1ccccc1)NCc1cccnc1,-2.2,16%,nt,4%,13%,-11,19
N#C/C(=C/c1ccc(N2CCOCC2)o1)c1nc2ccccc2[nH]1,?,20µM*,2.6%,1%,?,-13,-4
CCCc1cc(C(=O)NCc2cccnc2)no1,3.0,-1%,-0.8%,0%,11%,-4,nt
CCCCNC(=O)c1onc(CSc2ccc(F)c(F)c2)c1C(=O)O,2.1,14%,0.6%,nt,-17%,1,22

# 3 entries out of the list above, ordered by their value in gsp ag, high to low:
SMILES | Menin-MLL FL inh | Sfp inh | gsp ag | gsp antag | D2 potentiator
Cc1ccc(CSCc2nc3ccccc3[nH]2)cc1 | -1.8 | 17% | 3% | 1% | -3
Cc1c(NC(=O)C(C)Sc2nnc(-c3ccccc3)o2)c(=O)n(-c2ccccc2)n1C (stereo not given) | 1.7 | -1% | 0% | 6% | -17
CC1CN(C(=S)Nc2cccc([N+](=O)[O-])c2)CC(C)O1 (stereo not given) | nt | 1% | -11% | 5% | -4

# Next entries.
SMILES,Menin-MLL FL inh,Sfp inh,ClpP mod,gsp ag,gsp antag,D2 potentiator,TRPV1 potentiator
Cc1cccc(CN2CCC(n3nccc3NC(=O)CCCc3ccccc3)CC2)n1,-4.4,8%,-7.1%,-6%,11%,-14,-7
CCN(c1ccccc1)S(=O)(=O)c1ccc(C(=O)N2CC(C)CC(C)C2)cc1 (stereo not given),nt,nt,-0.3%,6%,3%,-4,-19
O=C(O)c1cccc(N2C(=O)c3cccc(Oc4ccc(Cl)cc4)c3C2=O)c1,-1.8,-5%,-0.6%,-48%[inhibitor],?,-6,10
O=C(OCCN1CCOCC1)c1cccnc1,2.0&3.3,20%&15%,-1.4%&-0.8%,17%&-11%,6%&0%,-8&-7,-9&12
CN(C)S(=O)(=O)c1ccc(-c2csnn2)s1,0.1,14%,-2.2%,-18%,10%,4,0
